# From PubChem BioAssay
# Ecoli rRNA inh: selective bacterial rRNA inhibition in E. coli | 1.6% of 350,000 active | GFP signal change (wild-type ribosome), % (no concentration beside the values) | E. coli WT GFP vs humanized-ribosome RFP mutants, fluorescence, 24 h; hits give low values; DMSO median 0, no signal -100 | AID 720706;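 active means significant combined selectivity score with lowered wild-type GFP, culture density cut under 30%, mutant RFP and density less affected; inactive means any of these conditions unmet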; further: one replicate is shown; some compounds called inactive have numbers as strong as hits
# B2AR ag: agonists of human beta-2 adrenergic receptor inducing internalization. 0.43% of 340,000 active. Am2.2-beta2AR cells, FAP receptor internalization, flow cytometry; reference of the scale not given here. response, % (no concentration beside the values);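 active means response above a set limit, near 3 SD of response in nonfluorescent compounds, cut at about 42% in these data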;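 further: stock transfer was 100 nL into about 11 µL; a reference agonist was the positive control; negative values mostly stem from fluorescent compounds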
# Target sequence (P07550 whole entry, looked up): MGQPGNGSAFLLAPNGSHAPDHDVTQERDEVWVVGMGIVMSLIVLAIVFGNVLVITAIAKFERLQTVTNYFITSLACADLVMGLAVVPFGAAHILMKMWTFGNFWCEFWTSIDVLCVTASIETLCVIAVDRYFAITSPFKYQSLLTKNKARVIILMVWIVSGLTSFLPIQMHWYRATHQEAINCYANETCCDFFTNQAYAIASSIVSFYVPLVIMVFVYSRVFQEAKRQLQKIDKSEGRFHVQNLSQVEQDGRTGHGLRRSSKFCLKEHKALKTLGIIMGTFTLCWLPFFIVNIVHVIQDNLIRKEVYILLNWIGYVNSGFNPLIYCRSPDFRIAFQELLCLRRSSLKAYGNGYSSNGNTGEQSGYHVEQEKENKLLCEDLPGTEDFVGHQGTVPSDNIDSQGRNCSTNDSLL
# Beta apoptosis: blocks beta cell apoptosis. INS-1E cytokine-induced death, ATP luminescence, 48 h; percent of positive-control rescue, neutral wells zero. 0.8% of 300,000 active. AID 435005. protection from apoptosis, % (concentration not given with the values);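 active means all replicates at 75% or more, or half of them and the mean; inconclusive means half reach 75% but not the mean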;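 further: 0% = cytokine-treated negative control wells and 100% = positive control rescue; higher means more ATP so stronger rescue from cytokine killing; wells of about 40 µL received 100 nL stock; the first replicate is given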
# ALR inh: human ALR oxidase inhibition via reduced H2O2; inhibition, % (concentration not given with the values); P55789; purified ALR, DTT oxidation, H2O2 HRP-luminol luminescence; 3.8% of 290,000 active;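 active means mean and each replicate at 75% or more; inconclusive means only one of the two met; inactive means neither met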;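 further: stock transfer was 7.5 nL into about 7.5 µL; 0% = neutral wells and 100% = wells with inactivated enzyme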
# Target sequence (P55789 whole entry, looked up): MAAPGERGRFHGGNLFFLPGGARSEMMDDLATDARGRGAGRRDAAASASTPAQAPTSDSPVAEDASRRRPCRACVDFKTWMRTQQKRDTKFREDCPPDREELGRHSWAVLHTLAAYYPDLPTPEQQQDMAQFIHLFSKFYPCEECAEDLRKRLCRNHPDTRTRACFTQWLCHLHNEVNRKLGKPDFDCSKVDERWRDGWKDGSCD
# Bfl-1 A1 inh: inhibitors of the anti-apoptotic protein A1, read as caspase activation. caspase activation, % (no concentration beside the values). 0.066% of 330,000 active. MEF A1-2A-BIM cells, Caspase-Glo 3/7 luminescence, 3 h; percent of clofoctol response, vehicle zero. AID 2462;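 active means over half of replicate activation scores above 10%, or exactly half above 10 with the replicate mean above 10; inconclusive means replicate mean below 10 yet half the replicates above 10; inactive means over half of replicates below 10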;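 further: wells of about 30 µL received 50 nL stock; many hits fall short of the cut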
# T cruzi repl: blocks replication of Trypanosoma cruzi; T. cruzi beta-gal in NIH3T3, luminescence, 90 h; inhibition, % (test concentration not listed); 1.4% of 300,000 active;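 active means mean inhibition across valid replicates above about 55%, limit read from the data; inconclusive means mean below that limit but half or more replicates reach it; inactive means mean below it, under half of replicates reach it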;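 further: signal also drops with host cell toxicity which is not excluded here; 0% = plate median of DMSO wells and 100% = zero luminescence signal; higher percent means less beta-gal luminescence so fewer parasites; stock transfer was 50 nL into about 50 µL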
# LANA-H2A inh: blocks KSHV LANA binding to histone H2A/H2B | Q9QR71 | cell-free LANA-H2A/H2B peptide, fluorescence polarization | inhibition, % (concentration not given with the values) | 0.6% of 320,000 active | AID 2629; in the data active means inhibition mostly above about 10%, no sharp cut-off; inactive means mostly below about 6.7%;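 further: stock transfer was 7.5 nL into about 10 µL; 0% = median of vehicle wells and 100% = median of positive control wells; one replicate is shown; the record names a cut of 25% in any replicate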
# Calb FLC: C. albicans growth modulation with fluconazole; C. albicans CaCi-2 (fluconazole-resistant clinical isolate) + fluconazole, Alamar Blue growth, 48 h; growth inhibition, % (concentration not given with the values); 0.57% of 300,000 active;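 active means most replicates above 75%; inconclusive means exactly half above 75%; inactive means most below 75%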;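 further: all wells also contain fluconazole at 8 µg/ml as a sub-toxic cotreatment; 0% = median of DMSO wells and 100% = median of geldanamycin control wells; wells of about 8 µL received 7.5 nL stock; the first replicate is given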
# Ecoli rRNA inh OD600: further read-out of Ecoli rRNA inh, marked with its call; OD600 change, %; measured here: OD600 growth;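 optical density of the mix in the first replicate; 0 = DMSO median and -100 = no signal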
# Ecoli rRNA inh RFP: further read-out of Ecoli rRNA inh, marked with its call; RFP signal change, %; measured here: RFP humanized mutant strains;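 first replicate; 0 = DMSO median and -100 = no signal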
# Active calls of the source: *; ? = inconclusive; nt = not tested or not shown.
SMILES,Ecoli rRNA inh,Ecoli rRNA inh OD600,Ecoli rRNA inh RFP,B2AR ag,Beta apoptosis,ALR inh,Bfl-1 A1 inh,T cruzi repl,LANA-H2A inh,Calb FLC
COc1ccc(CNC(=S)Nc2ccccc2Cl)cc1,2,-1,-1.2,-10,7,6,1.4,-14,11,-4
O=C1C=C(c2ccc(F)nc2)C[C@@H](c2ccc3c(c2)OCO3)C1,6,2,-9.4,-5,2,-17,0.6,nt,0.0,nt
c1ccc2c3c([nH]c2c1)C(C1CCCCC1)N(Cc1ncc[nH]1)CC3 (centres undefined),nt,nt,nt,2,-4,98*,0.4,19,-2.0,-3
O=C(NCc1ccccn1)Nc1ccc(Cl)c(Cl)c1,nt,nt,nt,-1,-8,-4,-0.1,0,-2.4,-19
O=C(Nc1ccc(Cl)cc1)c1nc[nH]c1C(=O)N1CCc2ccccc2C1,16,21,-4.6,4,-5,-10,0.0,nt,-0.1,nt
Cc1ccc(CSc2nc(N)cc(N)n2)cc1,1,-13,-2.0,-6,-15,nt,-0.1,-13,-5.0,64
O=C(OCCOCCN=C1NS(=O)(=O)c2ccccc21)c1ccncc1,nt,nt,nt,4,-5,-11,0.0,5,2.1,0
O=C1C(Oc2ccccc2)C(c2ccc3c(c2)OCO3)N1CCc1ccc(F)cc1 (centres undefined),22,1,0.8,3,-1,-23,-0.2,34,5.3,12
CCCCC(NC(=O)COc1cc2c(c3oc(=O)cc(C)c13)CCC(C)(C)O2)C(=O)O (centres undefined),-14,-2,-0.7,-8,-4,2,0.3,2,-1.6,15
COc1cccc(NC(=O)C2CCOC2=O)c1 (centres undefined),7,-7,-1.0,0,-1,-1,0.5,1,8.8,0
CCOc1ccc(C2NC(=O)c3n[nH]c(C)c32)cc1 (centres undefined),6,2,-1.1,-8,nt,-18,1.3,-14,-2.1,32
O=C(Cn1nc(-c2ccccc2Cl)ccc1=O)Nc1ccc(Br)cc1,-4,2,-0.4,9,-2,-8,-1.1,0,3.6,-11
Cc1c(NC(=S)NC(=O)C(C)(C)C)c(=O)n(-c2ccccc2)n1C,nt,nt,nt,2,-9,1,1.0,-5,3.2,-1
CCS(=O)(=O)Nc1ccc(-c2nnc(SCC(=O)c3cccc(OC)c3)o2)cc1,nt,nt,nt,2,6,26,0.3,-5,0.3,?
COc1ccc(NS(=O)(=O)c2ccc(C)c(C(=O)O)c2)cc1,10,10,1.9,7,-5,-6,?,-11,0.7,-14
COCCn1c(N)c(Sc2ccccc2[N+](=O)[O-])c(=O)[nH]c1=O,-10,-5,-0.3,0,4,-11,-0.6,5,-2.4,-10
O=C(COC(=O)c1cc2c(s1)CCC2)Nc1ccc(F)cc1,2,1,1.5,4,-9,-37,0.5,-11,3.6,?
CC(=O)Nc1ccc(NC(=S)Nc2ccc(Br)cc2)cc1,-43,-64,-18,-1,1,2,-0.3,-10,-5.3,-13
COc1ccc(NC(=S)N2CCC(N(C)CC3CCCO3)CC2)cc1Cl (centres undefined),nt,nt,nt,6,7,-5,0.0,4,-6.4,-6
COc1ccc(CCN2C(=O)c3ccccc3C2(O)c2ncc[nH]2)cc1OC (centres undefined),nt,nt,nt,-26,3,-4,-0.3,-6,-6.5,0
Cc1ccc(N=C2C(=O)Nc3ccccc32)c(C)c1,13,15,2.0,3,-2,10,1.4,-7,3.2,-1
Cc1ccc(NC(=O)CN(C)S(=O)(=O)c2ccc3c(c2)n(C)c(=O)c(=O)n3C)cc1,9,19,2.3,-8,12,3,-0.1,-3,8.7,4
CCOC(=O)COc1nc(-c2ccc(Cl)cc2)cc(-c2ccco2)c1C#N,18,19,2.5,4,-1,-1,0.9,-3,-3.2,-11
O=C(CSc1nnc(-c2cccs2)n1C1CC1)NCC1CCCO1 (centres undefined),8,5,-1.8,-3,-1,1,0.3,nt,-375,nt
CCc1noc(C)c1C(=O)Nc1ccc(Cl)c(S(=O)(=O)N2CCCCC2)c1,-7,-14,0.8,5,nt,-9,0.6,-6,2.2,-5
Cc1ccn2cc(CCNC(=O)CC3CCCCC3)nc2c1,3,7,-2.0,-4,-2,-3,0.5,42,-0.3,1
CCOc1ccc(NC(=O)CN(C)C(=O)Cn2cnc3c2c(=O)n(C)c(=O)n3C)cc1OCC,6,1,-2.4,7,4,-8,1.1,-16,3.3,-8
S=C(N/N=C/c1ccc(Cl)c(Cl)c1)Nc1ccccc1Cl,13,1,-0.6,-7,19,nt,0.6,19,0.0,26
COC(=O)c1[nH]c2cccc(OC)c2c1NC(=O)CCN1CCN(c2ccccc2OC)CC1,nt,nt,nt,0,0,18,-0.1,-8,-3.8,8
Cc1ccc(NC(=O)COC(=O)c2ccc([N+](=O)[O-])o2)cc1S(=O)(=O)N1CCCCCC1,-2,-4,-2.3,6,-11,-23,-1.7,2,1.1,-16
O=C(NCc1nnnn1-c1ccc(Cl)cc1)c1ccc(Br)o1,2,4,-2.3,-5,-2,-5,-0.5,4,2.4,-4
Cn1c(SCC(=O)NN2C(=O)NC(C)(c3ccccc3)C2=O)nnc1-c1ccncc1 (centres undefined),8,15,-1.6,7,4,nt,-0.2,nt,-1.9,nt
CC(C)N(C(=O)COC(=O)c1cc(Cl)cc(Cl)c1N)C(C)C,nt,nt,nt,2,2,-6,-0.2,22,1.8,-10
Cc1ccc(C2=NN(CC(=O)O)C(=O)CC2)cc1,3,17,-1.3,-8,-6,-3,0.4,-9,-1.7,-2
CSc1ncccc1C(=O)NC(C)C1CC2CCC1C2 (centres undefined),2,-4,-0.4,-7,5,-4,-0.4,-6,4.8,10
C=CCSc1nc(C)cc(/C=C\c2ccccc2)c1C#N,nt,nt,nt,0,1,-8,-0.1,25,-0.8,2
c1ccc(CCNc2ncnc3sccc23)nc1,4,-4,-0.4,-3,50,1,-0.5,4,-5.5,26
Cn1c(/C(C#N)=C(\O)COc2ccc3ccccc3c2)nc2ccccc21,5,4,1.5,-17,-2,nt,-0.9,-1,5.5,1
O=C(Nc1c(Cl)cc(Cl)cc1C(=O)NCCN1CCOCC1)c1ccc(Cl)cc1Cl,nt,nt,nt,1,-1,-4,1.4,-11,-2.1,-2
O=C(c1ccco1)N1CCN(S(=O)(=O)c2ccc(S(=O)(=O)NC3CCCC3)cc2)CC1,9,-2,-5.5,-6,8,-20,1.0,-8,2.8,-1
O=C(Cn1nnc(-c2ccccc2NC(=O)c2ccccc2)n1)Nc1ccc2c(c1)OCCO2,nt,nt,nt,7,10,-18,0.5,2,-0.7,34
Cc1ccc(S(=O)(=O)/N=C2/NC(=O)/C(=C/c3ccncc3)S2)cc1,nt,nt,nt,nt,0,30,0.5,-9,-2.9,-2
CC(C(=O)Nc1ccc2c(c1)OCCO2)n1nnc(-c2ccccc2)n1 (centres undefined),0,-1,-2.3,-4,-2,0,1.0,8,-0.6,3
O=C(c1ccc2c(c1)OCO2)C1CCCN(Cc2ccc(OC(F)F)cc2)C1 (centres undefined),-18,-14,-1.6,2,-1,-4,-0.6,30,-4.3,-6
CSc1ccc(/C=N/NC(=O)c2sccc2C)cc1,7,13,2.9,6,22,-3,-8.7,-7,4.5,-14
O=S(=O)(NCc1ccccc1Cl)c1ccc(-n2cnnn2)cc1,-5,-12,-0.9,-2,8,-25,-0.6,2,1.9,-2
CC(C)CNCC(=O)N1c2ccccc2Sc2ccccc21,nt,nt,nt,15,-8,41,0.6,18,-2.8,-9
O=C(CN(CC1CCCO1)C(=O)CNS(=O)(=O)c1ccc(Cl)cc1)NCC1CCCO1 (centres undefined),nt,nt,nt,-5,nt,-13,1.0,10,1.7,-1
CC1=CC(=C(C#N)C#N)C=C(C)N1CCN1CCN(C(=O)Nc2ccc(Cl)c(Cl)c2)CC1,nt,nt,nt,2,-3,-6,0.1,1,0.6,-1
Cc1cc(C(=O)CSc2nc(N)cc(=O)[nH]2)c(C)n1-c1cccc(F)c1,8,17,3.0,0,45,-3,0.9,4,-2.6,-9
Cc1cc(NCCN2CCOCC2)n2nc(C)c(-c3ccccc3)c2n1,nt,nt,nt,1,-5,15,2.0,22,-0.6,1
C#CCOCCOCCOCCNc1nc(N2CCN(C(=O)[C@H](CCCCN)n3cc(CN)nn3)CC2)nc(N2CCN(C(=O)[C@H](CO)n3cc([C@@H](N)C(C)C)nn3)CC2)n1,0,7,1.1,1,-1,1,0.3,nt,2.1,nt
COc1cc(C2NC(=O)NC(C)=C2C(=O)Nc2cccc(C)c2C)cc(OC)c1OC (centres undefined),nt,nt,nt,-1,-4,-3,0.3,-2,0.7,-4
O=C(Nc1ccc(Cl)cc1)C1CCCN1C(=O)NCc1ccccc1 (centres undefined),0,4,1.6,-2,-1,-24,?,-7,0.0,5
O=C(O)c1cccc(Cn2c(Cl)c(/C=N/Nc3ccccc3)sc2=O)c1,nt,nt,nt,-2,-10,100*,0.2,4,-3.6,26
COc1ccc(C2=NCC(CSc3nccc(=O)[nH]3)S2)cc1 (centres undefined),nt,nt,nt,-3,-8,1,-0.6,-2,1.1,71
Cc1ccccc1OCCCCN1CCCCC1,8,13,0.9,0,-6,6,0.4,-21,2.5,-14
Cn1c(SCc2nc(-c3ccc(Cl)cc3)no2)nnc1-c1ccccc1,6,9,-6.4,0,-8,-18,0.1,14,2.7,11
COc1ccccc1/C=C/C(=O)NCC(=O)N/N=C/c1ccc(C(=O)O)cc1,2,-8,-0.2,3,-5,nt,-0.7,-13,-0.3,-28
CC1CCCN(CC(=O)Nc2ccc(S(=O)(=O)NC3CCCCC3)cc2)C1 (centres undefined),4,-2,2.0,7,1,2,0.0,-8,-1.0,-7

# Next section:
SMILES,Ecoli rRNA inh,Ecoli rRNA inh OD600,Ecoli rRNA inh RFP,B2AR ag,Beta apoptosis,ALR inh,Bfl-1 A1 inh,T cruzi repl,LANA-H2A inh,Calb FLC
COc1ccccc1N(C)S(=O)(=O)c1ccc(Cl)c(C(=O)N2CCC(C(N)=O)CC2)c1,17,9,1.0,-8,-3,-4,0.3,-8,-0.3,-1
COc1cc(NC(=O)COC(=O)CNC(=O)c2ccc(C)s2)cc(OC)c1,-1,14,0.3,0,nt,-4,0.9,-14,-6.6,-7
O=C(O)C1CC(c2ccccc2)=Nc2ccccc2S1 (centres undefined),-16,-15,7.6,-4,-9,nt,-1.8,-4,1.5,4
COC(=O)c1cc(-c2ccccc2)n(CCN)c1C,9,5,-0.4,-4,-5,3,0.8,-18,-2.5,-7
CC(C)NC(=O)NNc1c(Cl)cncc1Cl,16,3,0.0,-1,-1,15,0.6,-26,-0.5,-1
CC(C)CC(=O)Nc1ccccc1N1CCN(c2ccc(F)cc2)CC1,11,4,-2.0,-1,2,19,-0.3,1,-0.9,-6
O=C(N/N=C/c1ccc2c(c1)OCO2)C(=O)Nc1ccccc1Cl,10,7,9.2,-2,-2,-19,-0.3,nt,-4.8,-5
c1ccc(C[C@H]2CN=C(Nc3ccccc3)N2CC2CCC2)cc1,-4,-9,-5.7,2,10,3,-0.3,nt,2.9,nt

# The list is partial; count on the stated rates, not on these rows.
